HSD17B inhib: inhibitors of human HSD17B10 dehydrogenase; Q99714; recombinant HSD17B10, NADH fluorescence kinetic; many of its hits are not listed in these tables; Potency, µM (highest dose often 57.1 µM), for inactives: at the top dose activity change, negative = inhibition, actives largely listed as inhibitors; 75,000 compounds, 7.6% hits; AID 893; active means well fitted inhibition curve with a large enough effect; inconclusive means small, poorly fitted or top-dose-only effect; inactive means no such curve, though single readings can be large or run the other way;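 further: the protocol describes HADH2 (HSD17B10) and not the HSD17B4 of the title; nearly all actives have a fitted effect of over 70% in size; most hits overshoot -100% by far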
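20 nM HADH2, pH 9.0 Tris/Tween; cpd preinc 15 min RT; start w/ 1 mM NAD+ + 90 uM b-hydroxybutyryl-CoA; kinetic fluor ex360/em450 q30s x 4 min; delta last-first.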
Starred values were filed as active, the others as inactive; ? = inconclusive; [ ] = another dose, or the depositor's remark. On the % scale 0 is the no-effect control and ±100 the full control effect; potency means the concentration at half of the fitted maximal effect. This is a subset; rates above refer to the full screens.

The first four compounds, ahead of the listing:
SMILES	HSD17B inhib
CCc1ccc(Nc2cc(=O)n(C3CCCCC3)c(=O)[nH]2)cc1	14%
COc1cccc(-n2c(COc3ccccc3C)nnc2SCC(=O)O)c1	1%
O=C(Nc1nc(-c2ccco2)c(-c2ccco2)s1)C1CC(=O)N(c2ccc3c(c2)OCCO3)C1 (stereo unspecified)	1.3µM*
CCCC(C)C(=O)Nc1cccc(NC(C)=O)c1 (stereo unspecified)	5%

Results, from the start:
SMILES	HSD17B inhib
CCc1ccc(Nc2cc(=O)n(C3CCCCC3)c(=O)[nH]2)cc1	14%
COc1cccc(-n2c(COc3ccccc3C)nnc2SCC(=O)O)c1	1%
O=C(Nc1nc(-c2ccco2)c(-c2ccco2)s1)C1CC(=O)N(c2ccc3c(c2)OCCO3)C1 (stereo unspecified)	1.3µM*
CCCC(C)C(=O)Nc1cccc(NC(C)=O)c1 (stereo unspecified)	5%
CCOC(=O)c1c(C)[nH]c(C(=O)CSc2nnnn2-c2ccc(C)cc2)c1C	-14%
CCn1c(N2CCC(C)CC2)nc2c1c(=O)n(C)c(=O)n2C	4%
CC(=O)NC(Cc1c[nH]c2ccccc12)C(=O)N1CCc2ccccc2C1 (stereo unspecified)	3%
COc1ccc(C(=O)N(Cc2ccco2)Cc2cccs2)c(O)c1	-13%
Cn1cccc1C(=O)N1CCC2(CCCN(C(=O)Nc3cccc(F)c3)C2)CC1	1%
O=C(c1cccc(C(=O)N2CCN(c3ccccc3)CC2)c1)N1CCN(c2ccccc2)CC1	6%
C1=CC2CC1CC2CN1CCN(c2ccccc2)CC1 (stereo unspecified)	11%
O=C(O)C(=O)/C=C(\O)c1ccc(Br)cc1	-3%[11.4 µM]
COc1cccc(C2/C(=C(\O)c3ccc4c(c3)OCO4)C(=O)C(=O)N2CCN(C)C)c1OC (stereo unspecified)	-1%
C/C=C/Cn1c(SCc2ccc(Cl)cc2)nc2c1c(=O)[nH]c(=O)n2C	-25%
CCOC(=O)OCC1OC(CCc2ccccc2)CCC1Oc1ccc(OC)cc1 (stereo unspecified)	-2%[11.4 µM]
CCOc1ccc(N2CC(C(=O)Nc3ccc(S(=O)(=O)N4CCOCC4)cc3)CC2=O)cc1 (stereo unspecified)	5%
Cc1cc2ncn(/N=C/c3cccnc3)c2cc1C	-9%
CCOC(=O)c1cc(-c2ccco2)nc2c1c(C)nn2CCC#N	?
COc1ccc(-c2cc3nc4c(c(N5CCC6(CC5)OCCO6)n3n2)CCCC4)cc1	-10%
COc1ccc(C(=O)Nc2c3c(nn2-c2cccc(Cl)c2)CS(=O)C3)cc1 (stereo unspecified)	12%
O=P(O)(CCP(=O)(O)c1ccccc1)c1ccccc1	1%[11.4 µM]
CCOC(=O)C1CCN(C(=O)COC(=O)c2ccc(Br)o2)CC1	6%
C=CCn1c(C)cc(C(=O)CSc2nnc(NCc3ccccc3)s2)c1C	?
CC(C)OC(=O)c1cc2c(OC[C@@H](O)CNC(C)(C)C)cccc2[nH]1	32µM*
COC(=O)c1cccc(CSc2nnc(C)s2)c1	-3%

Additional compounds
SMILES	HSD17B inhib
CCCCCCN(C(=O)CCCCCN1C(=O)NC(c2ccc(-c3ccccc3)cc2)C(C(=O)OCc2ccccc2)=C1C)C(C(=O)NCCCC)c1ccccc1 (stereo unspecified)	0%
CCOC(=O)c1c(C)noc1CP(=O)(c1ccccc1)c1ccccc1	10%
Cc1c(C(=O)N2CCOCC2)sc2nc(-c3ccccc3)cn12	-1%
CC(C)c1cc(CN2CCN(CCC#N)CC2)cc(C(C)C)c1O	5%
c1ccc(N(c2ccccc2)c2nc(N3CCOCC3)nc(N3CCOCC3)n2)cc1	-1%
CC(C)C[C@H](NC(=O)[C@@H]1O[C@H]1C(=O)O)C(=O)NCCCCN=C(N)N	5%
CC1CCC2C(=O)N3C(CCC(C)C3c3ccc(-c4ccco4)cc3)C(=O)N2C1c1ccc(-c2ccco2)cc1 (stereo unspecified)	4µM*
COc1ccc(OC)c(NC(=O)C23CCC(C)(C(=O)C2)C3(C)C)c1 (stereo unspecified)	4%
CCOC(=O)N1CCN(C(=O)C(NC(=O)c2ccc(CC)cc2)C(C)C)CC1 (stereo unspecified)	6%
CCS(=O)(=O)N1CCC(C(=O)NCc2cccc(OC)c2)CC1	7%
O=C(CC(O)(c1ccccc1)C(F)(F)C(F)F)c1cccs1 (stereo unspecified)	-4%
COC(=O)c1cc(Br)ccc1-c1ccc(/C=N/n2nnnc2N)o1	-124%
Cc1cc2occ(CC(=O)NC3=NCCS3)c2cc1C(C)C	2%
CCOc1ccccc1N(CC)C(=O)Cn1ncc2c(=O)oc3ccccc3c21	3%
c1ccc(NCCSc2nc3ccccc3s2)cc1	-4%[11.4 µM]
CCN1C(=O)[C@H]2[C@H]3[C@H](O)[C@H](O)C/C(=N/OC[C@@H](O)[C@H]4O[C@H]5OC(C)(C)O[C@H]5[C@@H]4O)[C@@H]3CC[C@@H]2C1=O	2%[11.4 µM]
COc1c2ccoc2nc2c(OC)c(OC[C@H](O)C(C)(C)O)ccc12	13µM*
CCN=C1SC(C(=O)NCCc2ccccc2)CC(=O)N1CC (stereo unspecified)	-1%
O=C(Cc1ccccc1)Nc1nc(-c2cccs2)cs1	-6%
COC(=O)c1ccccc1NC(=O)CSc1nc(O)cc(=O)n1C1CCCC1	7%
Cc1cccc(/N=C/c2c(O)n(-c3cc(Cl)ccc3N3CCOCC3)c(=O)c3ccccc23)n1	7%
Cc1ccc(C(=O)CSc2nnc(Cn3nnc4ccccc43)n2C)cc1	3%
CCn1cc(NC(=O)Nc2ccc(OC)c(OC)c2)c(C(N)=O)n1	3%
Cc1ccc2c(c1)c1ncnc(N3CCC4(CC3)OCCO4)c1n2C	25µM*
CCOc1ccccc1N(CC(=O)NC1CCCCC1)S(C)(=O)=O	1%

(listing goes on)
SMILES	HSD17B inhib
COCCN(C(=O)CCCC(=O)Nc1ccccn1)C(C(=O)NC1CCCCC1)c1ccc(C)cc1 (stereo unspecified)	-2%
Cc1cccc(-c2cc3nc4c(c(N5CCCC(O)C5)n3n2)CCC4)c1 (stereo unspecified)	6%
O=C(CCN1CCCCC1)Nn1c(=S)[nH]c2ccccc2c1=O	-4%
O=C(c1cccc(F)c1)N1CCN(S(=O)(=O)c2ccccc2)CC1	6%
O=C(NCCSc1ccccc1)c1cccnc1	-1%
O=C(CCn1nnc2ccccc2c1=O)N[C@H](C(=O)O)c1ccccc1	8%
COc1ccc(-c2cc(C(F)(F)F)nc(SCC(=O)Nc3cc(C)on3)n2)cc1	2.5µM*
CC(=O)N1CCN(c2ccc(Nc3ncnc4c3oc3ccccc34)cc2)CC1	?
O=C(CCc1ccccc1)Nc1ccc(Cl)cn1	2%
N#Cc1ccc(NC(=O)Nc2ccc(Cl)cc2)cc1	1%
O=C(Nc1nccs1)c1cc2sccc2n1Cc1ccc(F)cc1	-15%
COc1ccccc1-c1cc(C(F)(F)F)nc(N2CCN(c3ccccc3)CC2)n1	6%
CCCn1c(-c2ccc(F)cc2)nc2c(NC3CCN(Cc4ccccc4)C3)nc(C)nc21 (stereo unspecified)	?
CC(=O)c1cccc(NC(=O)C2CCN(S(=O)(=O)c3ccc(C)cc3)CC2)c1	3%
O=C(C1CCCN1S(=O)(=O)c1cccc2cccnc12)N1CCn2c1nc1ccccc12 (stereo unspecified)	5%
Cc1cc2nc(-c3ccc(SCC(=O)N4CCN(C(=O)c5ccco5)CC4)nc3)[nH]c2cc1C	25µM*
Cc1ccc(N2CCCCn3c2nc2c3c(=O)[nH]c(=O)n2C)cc1	-4%
CCOC(=O)c1c(NC(=O)OC)sc2c1CCC2	-11%
CC1(C)CC(=O)c2c(oc3cc4c(cc23)OCO4)C1	8%
CCc1nnc(NC(=O)Nc2ccccc2OC)s1	-3%
O=C(NCCN1CCCCC1)c1ccc2c(c1)OCCO2	8%
COc1ccc2c(c1)OC/C(=C/c1ccc(OC)c(OC)c1)C2=O	-7%
Cc1cc(C(F)(F)F)nn1CC(=O)NCc1ccccc1	5%
CCN1C(=O)N(CC)C2C1N(C(C)=O)C(=O)N2C(C)=O (stereo unspecified)	0%
O=C(NCc1ccco1)c1cc2nc(C3CC3)cc(C(F)(F)F)n2n1	-6%

Next section
SMILES	HSD17B inhib
COc1cc(NC(=O)c2onc(C)c2Cl)c(OC)cc1Cl	32µM*
CCCCCC/C(C=O)=C\c1ccccc1	-2%
COC(=O)c1cc(=O)n(Cc2ccc3c(c2)OCO3)c(=Nc2ccccc2)s1	2%
C[C@@H](SCc1ccccc1)C(=O)O	-1%[11.4 µM]
CCOC(=O)c1c(C)n(C)c2ccc(O)c(CN3CCN(C)CC3)c12	-2%
NC(=O)c1ccc(NS(=O)(=O)c2ccccc2F)cc1	-2%
COCC(C)n1c(C)cc(C(=O)COC(=O)c2ccc(N3CCCC3=O)cc2)c1C (stereo unspecified)	-8%
CC1CCCCN1C(=O)CSc1nnc(-c2cccnc2)n1C1CCCCC1 (stereo unspecified)	11%
O=S(=O)(c1ccccc1)N1CCC2(CC1)CN(c1ncccn1)C2	?
Cn1nc(C(=O)N2CCOCC2)c2ccccc2c1=O	8%
CCOC(=O)CSc1nnc(Cn2nnc(-c3ccccc3)n2)n1CC	9%
Cc1nc2ncnn2c(N2CCC(C(=O)NC3CCCC3)CC2)c1Cc1ccccc1	4%
COc1ccc(C(C)(C)C)cc1NC(=O)c1ccoc1C	-30%
Cc1ccc(-n2ncc3c2ncn2nc(-c4ccco4)nc32)c(C)c1	25µM*
COc1ccc(-c2nnc(SC)n2C)cc1	-11%
CCc1cc(C(=O)Cc2ccc(F)cc2)c(O)cc1O	-5%
COc1cc(C2NC(=O)NC(O)(C(F)(F)F)C2C(C)=O)cc(OC)c1OC (stereo unspecified)	7%
CCC(=O)NC1=C(C#N)C2(CCCC2)Cc2ccccc21	2%
C/C(CCN1CCc2nc(-c3ccccc3)c(-c3ccccc3)cc2C1)=N\O[C@@H](C)CN1CCCCc2nc(C)c(C)cc21	4%[11.4 µM]
COc1ccccc1CNc1ncnc2nc[nH]c12	?
O=C(NCCc1ccncc1)Nc1ccccc1Cl	8%
O=C(NCc1cccnc1)c1cc(S(=O)(=O)N2CCCCC2)ccc1Cl	6%
O=C1Nc2ccc(NS(=O)(=O)c3cccs3)c3cccc1c23	4%
CCOc1nc(C)ccc1-c1noc(C)n1	5%
CC1CCN(c2nc3ccccc3nc2C(C#N)C(=O)NC2CCCCC2)CC1 (stereo unspecified)	-3%

A second format for four compounds above:
Structure | HSD17B inhib
O=C(c1cccc(C(=O)N2CCN(c3ccccc3)CC2)c1)N1CCN(c2ccccc2)CC1 | 6%
C1=CC2CC1CC2CN1CCN(c2ccccc2)CC1 (stereo unspecified) | 11%
O=C(O)C(=O)/C=C(\O)c1ccc(Br)cc1 | -3%[11.4 µM]
COc1cccc(C2/C(=C(\O)c3ccc4c(c3)OCO4)C(=O)C(=O)N2CCN(C)C)c1OC (stereo unspecified) | -1%

The listing continues.
SMILES	HSD17B inhib
CC1CC[C@]2(CO)CC[C@]3(C)C(=CCC4[C@@]5(C)CCC(O)C(C)(C)C5CC[C@@]43C)C2C1C (stereo partly specified)	4%
Cc1cnn(C(=O)c2ccccc2Br)c1	3%
COc1ccc(OC)c(C(C)NC=O)c1 (stereo unspecified)	-1%
COc1ccc(S(=O)(=O)N2CCCC(C(=O)N3CCN(C)CC3)C2)cc1C (stereo unspecified)	11%
CN1CCN(CC(=O)n2c3c(c4ccccc42)CCCC3)CC1	0%
Cc1nnc(SCC(=O)Nc2ccc(Oc3ccccc3)cc2)n1N	-1%
O=C(Nc1ccccc1C(F)(F)F)c1cc(-c2ccccc2O)on1	-10%
O=C(CSc1nc(C2CC2)nc2sc3c(c12)CCCC3)NCc1ccco1	12%
O=C(Cn1c(NCCO)nc2ccccc21)c1cccs1	2%
O=C(O)c1ccc(C(=O)O)c(C(=O)O)c1.[NH-][C@@H]1CCCC[C@@H]1[NH-].[Pt]	-6%[11.4 µM]
O=S(=O)(NCCc1ccccc1)c1ccc(S(=O)(=O)N2CCCCC2)cc1	3%
Nc1c(C(=O)NCCN2CCOCC2)c2nc3ccccc3nc2n1-c1ccccc1	-1%
COc1ccccc1NC(=O)C(Cc1ccc(Cl)cc1)c1nn[nH]n1 (stereo unspecified)	3%
C=CCn1c(SCc2ccc(OC)cc2)nnc1-c1cccnc1	4%
COc1ccc2nc(N3CCCC(C(=O)NCCCN4CCN(C)CC4)C3)sc2c1 (stereo unspecified)	7%
Cc1cc(NC(=O)CCC(=O)N(CCC(C)C)CC(=O)NCC2CCCO2)no1 (stereo unspecified)	-29%
O=C(Oc1ccccc1)c1ccc(-n2cnnn2)cc1	-9%
CCCCCNC(=O)C(C#N)c1nc2ccccc2nc1N1CCCC1 (stereo unspecified)	?
CCCc1cc(=O)[nH]c(SCC(=O)Nc2cc3c(cc2C(C)=O)OCO3)n1	?
CC1(C)C(c2ccccn2)=[N+]([O-])C(C)(C)N1O	18%
O=C(CCN1CCCCC1c1cccnc1)NCc1ccccc1 (stereo unspecified)	10%
CC(=O)Nc1ccc2nc(C3CCCCC3)[nH]c2c1	10%
CCn1cc(C(=O)NCc2ccco2)c(=O)c2cc(S(=O)(=O)N3CCc4ccccc4C3)ccc21	-29%
CC(=O)Nc1cc(NC(=O)CCCC(=O)O)ccc1Cl	2%
Cc1cc(N(C)C)cc(C)[n+]1[O-]	0%
COC(=O)c1c(NC(=O)CSc2nnnn2-c2ccc3c(c2)OCO3)sc(C)c1C	-9%

Reprinted at random: five records from the list.
SMILES	HSD17B inhib
O=C(CCN1CCCCC1c1cccnc1)NCc1ccccc1 (stereo unspecified)	10%
O=C(Oc1ccccc1)c1ccc(-n2cnnn2)cc1	-9%
CC1(C)C(c2ccccn2)=[N+]([O-])C(C)(C)N1O	18%
Cc1cc(NC(=O)CCC(=O)N(CCC(C)C)CC(=O)NCC2CCCO2)no1 (stereo unspecified)	-29%
Cc1cnn(C(=O)c2ccccc2Br)c1	3%

Compound activity deposited in PubChem BioAssay by National Center for Advancing Translational Sciences (NCATS).
